# Compound activity from PubChem.
# KCNQ2 pot: potentiators of rat KCNQ2 potassium channel; O88943; CHO-K1 KCNQ2, FluxOR thallium flux fluorescence; stronger effect = higher value; B-score at 10 µM; hit rate 0.54% among 310,000; AID 2239;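 active = fluorescence ratio B-score at least 3 SD of library B-scores, with initial fluorescence B-score within 3 SD, cut at about 5.3 in these data; same plate scores as AID 2156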;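 note: B-score of peak minus minimum over baseline fluorescence ratio after K+ and Tl+ stimulus; positive B-score means potentiation of KCNQ2 with more thallium influx and brighter signal; only the inactives scoring about 0 or higher are listed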
# Target sequence (O88943 whole entry, looked up): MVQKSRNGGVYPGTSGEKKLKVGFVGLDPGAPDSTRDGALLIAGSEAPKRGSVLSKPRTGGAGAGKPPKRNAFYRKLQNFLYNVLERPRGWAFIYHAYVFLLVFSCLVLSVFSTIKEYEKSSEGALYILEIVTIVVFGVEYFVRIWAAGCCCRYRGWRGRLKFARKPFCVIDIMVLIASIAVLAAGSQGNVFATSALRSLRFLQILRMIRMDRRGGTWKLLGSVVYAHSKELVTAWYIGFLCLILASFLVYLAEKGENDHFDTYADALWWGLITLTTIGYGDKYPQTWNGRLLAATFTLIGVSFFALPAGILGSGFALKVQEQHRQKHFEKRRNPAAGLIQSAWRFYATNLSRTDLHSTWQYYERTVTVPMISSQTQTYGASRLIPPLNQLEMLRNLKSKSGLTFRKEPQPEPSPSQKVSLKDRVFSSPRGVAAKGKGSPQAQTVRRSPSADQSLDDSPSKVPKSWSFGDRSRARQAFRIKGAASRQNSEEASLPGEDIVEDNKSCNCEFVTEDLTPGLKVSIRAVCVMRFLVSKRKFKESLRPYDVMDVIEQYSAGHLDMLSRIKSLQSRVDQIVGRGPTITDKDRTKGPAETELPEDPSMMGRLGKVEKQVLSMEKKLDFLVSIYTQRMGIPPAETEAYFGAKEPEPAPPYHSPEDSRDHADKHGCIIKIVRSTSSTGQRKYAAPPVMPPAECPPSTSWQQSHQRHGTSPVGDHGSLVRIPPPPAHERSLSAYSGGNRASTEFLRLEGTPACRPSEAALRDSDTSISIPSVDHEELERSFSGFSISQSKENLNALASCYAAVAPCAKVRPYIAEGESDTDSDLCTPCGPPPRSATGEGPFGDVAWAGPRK
# KCNQ2 pot baseline: second read-out of KCNQ2 pot, no call of its own (marks repeat the call); B-score; compound at 10 µM; measured here: initial fluorescence intensity artifact check;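 brightness before thallium and not channel activity; 0 = typical well and far values either way flag optical interference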
# Active calls of the source: *; / = not tested or not shown. These rows are one share of the data; rates above refer to the full screens.
no.	Structure	KCNQ2 pot	KCNQ2 pot baseline
1	COc1ccccc1NC(=O)N1CCCC1C(=O)NCc1ccccc1F (stereo not drawn)	0.57	-0.76
2	O=C(Cc1ccc(-n2c(=S)[nH]c3ccccc3c2=O)cc1)N1CCN(c2ccccc2)CC1	0.11	-0.71
3	CS(=O)(=O)c1ccc2nc(NC(=O)c3ccc(=O)[nH]c3)sc2c1	0.2	4.24
4	N#Cc1c(N)nc2c(c1-c1ccccc1)CCCC2	0.06	-1.01
5	CSc1nc(Oc2ccc(C)cc2)cc(C(F)(F)F)n1	0.01	0.06
6	COc1ccccc1Cn1c(C)nc2ccccc21	0.72	0.18
7	C(=N\Nc1ccccc1)/c1nc2ccccc2s1	0.67	-1.34
8	CCN(CC)C(=O)CSCC(=O)Nc1ccccc1	0.59	1.27
9	Cc1nn(C)cc1CN(C)C(=O)c1nn2c(c1Cl)NC(c1cccs1)CC2C(F)(F)F (stereo not drawn)	0.03	-0.67
10	CCOC(=O)c1c(NC(=O)CCC(=O)O)sc2c1CCCCC2	1.57	0.25
11	CCOC(=O)c1ccc(NC(=O)CCc2nc(-c3ccc(C)cc3)no2)cc1	0.15	-0.32
12	CCOC(=O)c1ccc(NC(=O)c2c(NCc3ccccc3)[nH]c(=O)[nH]c2=O)cc1	0.85	-0.25
13	O=C(c1ccncc1)N1CCN(S(=O)(=O)c2ccc(F)cc2)CC1	0.81	-2.15
14	CC(C)[C@H](NC(=O)N1CCn2c1nc1ccccc12)C(=O)N[C@H](Cc1ccccc1)C(=O)O	0.38	-0.49
15	O=C(c1ccc2c(c1)OCO2)N1CCN(c2ccccc2F)CC1	0.2	-0.61

# Quoted from the listing.
# Under KCNQ2 pot baseline, cpd 6 reads 0.18
# Under KCNQ2 pot baseline, cpd 9 reads -0.67

# The listing picks up; the two compounds before the break are reprinted first.
no.	Structure	KCNQ2 pot	KCNQ2 pot baseline
14	CC(C)[C@H](NC(=O)N1CCn2c1nc1ccccc12)C(=O)N[C@H](Cc1ccccc1)C(=O)O	0.38	-0.49
15	O=C(c1ccc2c(c1)OCO2)N1CCN(c2ccccc2F)CC1	0.2	-0.61
16	COC(=O)c1cccc(NC(=O)Cn2cnc3ccccc3c2=O)c1	0.58	-0.17
17	COc1ccc(/C=N/NC(=O)c2nnn(-c3nonc3N)c2CN(C)c2ccccc2)cc1	0.34	2.2
18	CCn1c(SCC(=O)c2ccc3c(c2)Cc2ccccc2-3)nnc1-c1ccc(N)cc1	1.25	2.38
19	Nc1nc2ccc([N+](=O)[O-])c(N)c2s1	0.91	-1.59
20	CCOc1cc(C(=S)N2CCN(C)CC2)ccc1OCC(=O)N1CCOCC1	0.04	0.06
21	CN1CCCN(Cc2nc(-c3cccc(C(F)(F)F)c3)no2)CC1	1.28	0.41
22	CCOc1ccc(C(=O)N/N=C/c2ccc(SC)cc2)cc1	0.31	-0.24
23	COCCn1nnnc1C(C(C)C)N1CCOCC1 (stereo not drawn)	0.97	0.08
24	COCCCn1cnnc1SCc1nc2sc(C(C)=O)c(C)c2c(=O)[nH]1	0.22	-1.61
25	O=C(c1ccccc1Cl)N(C(=O)c1ccccc1Cl)c1nccc(-c2cccs2)n1	0.44	-0.06
26	Cn1cc(/C=C/C(=O)N2CCCC(C(=O)c3ccc(C(C)(C)C)cc3)C2)cn1 (stereo not drawn)	0.51	-0.16
27	COc1ccc(C(=O)OC2CCN(C)CC2)cc1	0.87	-0.01
28	CC(C(=O)Nc1ccc(S(=O)(=O)N2CCOCC2)cc1)N(c1ccccc1)S(C)(=O)=O (stereo not drawn)	0.1	-1.61
29	O=C(CSc1nnc(-c2cccnc2)n1-c1ccc(SC(F)F)cc1)N1CCCc2ccccc21	0.77	1.5
30	COc1ccc(/C=C2\Sc3ccc(C(=O)NCCCN4CCCC4)cc3N(C)C2=O)cc1OC	0.77	-1.34

# Record cards (already shown):
# Record of COCCn1nnnc1C(C(C)C)N1CCOCC1 (stereo not drawn) → KCNQ2 pot = 0.97; KCNQ2 pot baseline = 0.08
# Record of CC(C(=O)Nc1ccc(S(=O)(=O)N2CCOCC2)cc1)N(c1ccccc1)S(C)(=O)=O (stereo not drawn) → KCNQ2 pot = 0.1; KCNQ2 pot baseline = -1.61
# Record of Cc1nn(C)cc1CN(C)C(=O)c1nn2c(c1Cl)NC(c1cccs1)CC2C(F)(F)F (stereo not drawn) → KCNQ2 pot = 0.03; KCNQ2 pot baseline = -0.67

# Other results.
no.	Structure	KCNQ2 pot	KCNQ2 pot baseline
31	Cc1cc(N(C)N)nc(NC(=O)NS(=O)(=O)c2ccccc2Cl)n1	0.51	-2.77
32	C/C=C/c1ccc(OCCCNC(C)CC)c(OC)c1 (stereo not drawn)	0.29	-0.01
33	COc1cc2c(cc1OC)C(c1ccc3c(c1)OCO3)CC(=O)N2 (stereo not drawn)	0.02	0.33
34	O=C(O)C(Cc1ccccc1)N1C(=O)CCC1=O (stereo not drawn)	1.03	0.02
35	COc1ccc(NC(=O)CCCn2c(=O)c3sccc3n(Cc3ccccc3C)c2=O)cc1	0.11	0.39
36	Cc1ccccc1C(=O)N1CCCN(C(=O)c2ccccc2C)CC1	0.73	0.82
37	CCOc1cccc(C2/C(=C(\O)c3ccc4c(c3)OCCO4)C(=O)C(=O)N2Cc2ccncc2)c1 (stereo not drawn)	0.85	-0.68
38	Cc1ccc(S(=O)(=O)NCCC(=O)O)cc1	0.51	0.61
39	CCOc1ccc(C(C)=O)cc1N1C(=O)C2C3C=CC(C3)C2C1=O (stereo not drawn)	0.64	-0.91
40	Cc1ccc(SCC(=O)NCCc2ccc(F)cc2)cc1	0.16	0.09
41	COc1ccccc1OCC(=O)N/N=C1/SCC(=O)N1Cc1ccccc1	0.94	-1.5
42	COc1cccc(C(=O)CSc2nnc(CNS(=O)(=O)c3ccc(C)cc3)n2C)c1	1.04	0.38
43	CC(Oc1cccc(Cl)c1)C(=O)Nc1ccncc1 (stereo not drawn)	0.55	-1.16
44	CCOc1cc(CN2CCN(C(=O)CC(C)C)CC2)ccc1OC	0.89	0.24
45	CCOc1ccc(NC(=O)C2CC(=O)NC(N3CCc4ccccc43)=N2)cc1 (stereo not drawn)	0.12	-1.83
46	c1ccc(CCNc2c3c(nc4ncnn24)CCC3)cc1	1.06	-0.03
47	O=C(Nc1ccccc1C(=O)Nc1nncs1)c1ccccc1	0.03	0.02
48	Cc1ccc(CN(CC(=O)NC2CCCC2)C(=O)CSc2nnc(COc3ccccc3)o2)cc1	0.92	1.46
49	CCCCn1nc(C(=O)N(C)CC(=O)Nc2cccc(F)c2)c2ccccc2c1=O	2.83	0.84
50	O=C(NCc1cccnc1)C1CC(c2ccc(Cl)c(Cl)c2)=NO1 (stereo not drawn)	0.97	0.05
51	CCN1C(=O)CC(N2CCN(CC(=O)NC(C)C)CC2)C1=O (stereo not drawn)	1.52	2.18
52	CC1CC(C)(C)NC(=S)N1CCC(=O)NCc1ccc(Cl)cc1 (stereo not drawn)	0.02	0.84
53	O=S(=O)(Nc1ccc2c(c1)OCO2)c1ccc(Br)s1	2.17	0.07
54	Cc1cc(C)n(C(=O)c2ccc(NC(=O)CC(C)C)cc2)n1	0.58	0
55	CN(CCCC1CCCC1)C(=O)CC1C(=O)NCCN1Cc1ccc(F)cc1 (stereo not drawn)	0.37	1.19
56	CCN1CCCC1CNC(=O)c1cc2c(OC)c(OC)c(OC)cc2[nH]1 (stereo not drawn)	0.84	-3.01
57	CC1(C)C(C=C(Cl)Cl)C1C(=O)Nc1ccc(S(=O)(=O)Nc2ncccn2)cc1 (stereo not drawn)	1.14	0.51
58	COc1cccc(/C=N/N(C)C2=NS(=O)(=O)c3ccccc32)c1O	0.17	0.42
59	Cc1cccc(C(=O)N2CCCC(N3CCN(c4ccccc4)CC3)C2)n1 (stereo not drawn)	0.87	2.17
60	Cc1ccc(S(=O)(=O)NC(=O)c2cc(C)n(CCCN3CCOCC3)c2C)cc1	0.56	-0.79
61	COc1cc(-c2nc(S(=O)(=O)c3ccc(Cl)cc3)c(N(C)C)o2)cc(OC)c1OC	0.43	-0.15
62	Cc1cc(NC(=O)CSc2ccc3nnc(-c4ccc(Cl)cc4)n3n2)no1	0.22	-0.58
63	COc1ccc(N2CCN(C(=O)CCCn3c(=S)[nH]c4cc5c(cc4c3=O)OCO5)CC2)cc1	0.26	0.18
64	COc1ccc(C(=O)NN2CCCCC2)cc1OC	0.92	0.69
65	CC(C)(C)c1ccc(C(=O)NC(=S)N2CCOCC2)cc1	2.13	1.58
66	CS(=O)(=O)N(CC(=O)N1CCN(Cc2ccc3c(c2)OCO3)CC1)C1CCCCC1	0.01	-0.17
67	COc1ccc([N+](=O)[O-])cc1/C=N/NC(=O)c1nonc1N	1.72	1.81
68	O=C(CSc1nc2ccc(Cl)cc2[nH]1)Nc1ccc2[nH]c(=O)[nH]c2c1	0.25	-0.48
69	O=C(NCCCC(NC(=O)OCc1ccccc1)C(=O)O)OCc1ccccc1 (stereo not drawn)	2.92	-0.79
70	COc1ccc(CCN2C(=O)CC(C(N)=O)SC2=Nc2ccccc2)cc1OC (stereo not drawn)	2.56	0.85
71	CCOC(=O)CN(C(=O)CSc1nnc(CNc2ccc(F)cc2)o1)c1ccccc1	0.33	0.01
72	CCCCNC(=O)NNC(=O)COc1cccc(C)c1C	0.11	0.12
73	CC1(C)Cc2nc3sc(C(N)=O)c(N)c3cc2CO1	1.05	-0.44
74	CCCc1nc2oc3c(OC)ncnc3c2c2c1COC(C)(C)C2	1.8	-3.57
75	Cc1ccn2cc(CCNC(=O)CC(C)(C)C)nc2c1	1.79	-0.28
76	CC(C)(C)NC(=O)C(c1ccncc1)N(CC1CCCO1)C(=O)Cn1nnc(-c2ccc(F)cc2)n1 (stereo not drawn)	0.05	-0.28
77	CCCCOc1ccc(C(=O)NCc2ccncc2)cc1	1.39	1.53
78	CC(=O)OC(C(=O)NCS(=O)(=O)c1ccc(C)cc1)c1cccnc1 (stereo not drawn)	0.91	-0.58
79	CCN(Cc1ccccc1OC)CC1CCCN(CCc2cccc(OC)c2)C1 (stereo not drawn)	0.66	-0.01
80	CCn1c(O)c(N=NC(=O)c2ccc(CSc3nncn3C)cc2)c2ccccc21	1.43	-2.19
81	O=C(Nc1ccc(-c2nc3cccnc3s2)cc1)c1ccc(Br)o1	1.53	-0.74
82	O=C(Cc1ccc(F)cc1)NC(Cc1c[nH]c2ccccc12)C(=O)O (stereo not drawn)	1.18	1.43
83	O=C(NC(=S)Nc1ncccn1)c1ccc(F)cc1	0.83	0.78
84	COc1cccc(-n2ccnc2SCC(=O)Nc2cc(OC)ccc2OC)c1	0.23	0.09
85	Cc1ccc2cc(CCNC(=O)c3ccc(Br)o3)c(=O)[nH]c2c1	2.29	1.22
86	CCN1CCN(C(=O)c2cc(COc3ccc4ncccc4c3)on2)CC1	1.21	-4.31
87	COC(=O)c1c(N2C(=O)Nc3ccccc3N2O)sc2c1CCCC2	0.21	-0.14
88	C/C(=N\NC(=O)CNC(=O)c1cccs1)c1ccc(Cl)c(Cl)c1	1.53	-0.33
89	Cc1ccc2nc(NC(=O)CSc3nc(=O)n(CCCN(C)C)c4c3CCC4)sc2c1	0.68	0.01
90	CS(=O)(=O)N1c2ccccc2[C@]2([C@@]34C[C@H]5C(=O)N[C@@H](Cc6ccccc6)C(=O)N5[C@@H]3N(S(C)(=O)=O)c3ccccc34)C[C@H]3C(=O)N[C@@H](Cc4ccccc4)C(=O)N3[C@H]12	1.34	1.94

# (list continues)
no.	Structure	KCNQ2 pot	KCNQ2 pot baseline
91	CNc1ccc(Cl)nn1	0.13	-1.3
92	Cc1cc2c(cc1S(=O)(=O)CCC(=O)N(C)C1CCCCC1)OCC(=O)N2	0.77	0.69
93	O=C(Nc1ccc(CSc2ccccc2)cc1)c1ccco1	6.94*	0.81*
94	O=C(O)c1cccnc1SCc1cccc(Br)c1	0.56	0.03
95	N#Cc1ccc(N2CCN(C(=O)c3cccc(F)c3)CC2)c(F)c1	1.79	-0.37
96	O=C(NC1CC1)c1ccc2c(c1)N(Cc1ccc(Cl)cc1)CCS2	0.26	0.15
97	COC(=O)c1cccc(-n2c(C)cc(C=O)c2C)c1	0.48	-0.29
98	CC(O)CNC(=O)Cc1cc(=O)[nH]c(=O)[nH]1 (stereo not drawn)	1.46	-0.22
99	O=C(CCc1ccc(S(=O)(=O)N2CCOCC2)cc1)N1CCN(Cc2ccc3c(c2)OCO3)CC1	1.11	0.13
100	COc1ccc(N2CCN(S(=O)(=O)c3ccc(OC)c(C(=O)N4CCCCC4)c3)CC2)cc1	0.38	1.86
101	Cc1c(Cl)cccc1N=Cc1ccc([N+](=O)[O-])s1	0.19	-0.56
102	CCOc1ccc(C(=O)N2CCN=C2SC)cc1OCC	1.55	-0.75
103	COC(=O)c1ccc(NC(=S)NC(=O)c2cccnc2)cc1	0.01	-0.73
104	ClC(=C\c1ccccc1)/C=N/N1CCN(c2ccccn2)CC1	0.06	-0.17
105	NC1=NC[C@H](Cc2ccc(O)cc2)N1CCc1cccc(F)c1	0.51	-0.81
106	O=C(Cc1ccccc1)n1nc(-c2ccccc2)nc1NCc1ccco1	-5.57	/
107	O=C(c1cccc(F)c1)N1CCN(C(=O)c2nn3cccnc3c2Cl)CC1	1.25	-0.26
108	Cc1ccc(S(=O)(=O)N2CCOC2CNC(=O)C(=O)NCCc2ccc(S(N)(=O)=O)cc2)cc1 (stereo not drawn)	0.12	0.6
109	Cc1ccc(S(=O)(=O)N2CCC(C(=O)N3CCCC3C(=O)N[C@@H](CC(C)C)C(=O)NCC(N)=O)CC2)cc1 (stereo partly drawn)	1.33	0.22
110	CCn1c(-c2cccnc2Cl)nc2cc(C)c(C)cc21	1.29	0.94
111	Cc1ccc(S(=O)(=O)Cn2nnnc2C(CC(C)C)N2CCC(C(N)=O)CC2)cc1 (stereo not drawn)	0.06	1.63
112	Cc1nnc(Cl)c2nn(-c3ccccc3F)c(C)c12	1.25	0.4
113	Cc1c(C(=O)Nc2ccc(-c3nnc4n3CCCCC4)cc2)oc2c1ccc1ccccc12	2.16	-0.12
